PV pol inh – poliovirus RNA polymerase inhibition | P03300 | poliovirus polymerase elongation, fluorescence polarization; stronger effect = lower value | % elongation, % (compound at 16.7 µg/mL) | 0.66% of 150,000 active | AID 588519; in the data active = % elongation below about 90%; also: some results filed as inactive read as strong as hits
Target sequence (P03300 1749-2209 limits assumed): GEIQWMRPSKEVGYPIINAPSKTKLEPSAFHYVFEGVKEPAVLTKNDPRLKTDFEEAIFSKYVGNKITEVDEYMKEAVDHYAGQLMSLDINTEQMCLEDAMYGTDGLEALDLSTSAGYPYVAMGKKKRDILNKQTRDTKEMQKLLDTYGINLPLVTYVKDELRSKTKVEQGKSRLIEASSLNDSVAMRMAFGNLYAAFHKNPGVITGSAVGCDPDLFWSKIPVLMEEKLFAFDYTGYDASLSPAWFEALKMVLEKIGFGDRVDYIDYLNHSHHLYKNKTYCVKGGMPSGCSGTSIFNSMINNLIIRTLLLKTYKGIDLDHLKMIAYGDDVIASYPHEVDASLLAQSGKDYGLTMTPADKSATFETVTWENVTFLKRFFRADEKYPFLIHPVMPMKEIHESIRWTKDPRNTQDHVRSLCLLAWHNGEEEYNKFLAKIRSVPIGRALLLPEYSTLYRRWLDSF
Mtb MenB inh – inhibitors of Mycobacterium tuberculosis MenB enzyme | P9WNP5 | MenB enzyme assay, absorbance read-out; some hits fall short of the stated cut | inhibition, %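 (about 12 µg/mL by stock and volumes)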 | 0.43% of 100,000 active | AID 540299;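 active = mean of two replicates above 30%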;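 also: 0% = no compound and 100% = wells with inactive enzyme; the first replicate is given; strong numbers were not always called active; inactives centre near -10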
Target sequence (P9WNP5 whole entry, looked up): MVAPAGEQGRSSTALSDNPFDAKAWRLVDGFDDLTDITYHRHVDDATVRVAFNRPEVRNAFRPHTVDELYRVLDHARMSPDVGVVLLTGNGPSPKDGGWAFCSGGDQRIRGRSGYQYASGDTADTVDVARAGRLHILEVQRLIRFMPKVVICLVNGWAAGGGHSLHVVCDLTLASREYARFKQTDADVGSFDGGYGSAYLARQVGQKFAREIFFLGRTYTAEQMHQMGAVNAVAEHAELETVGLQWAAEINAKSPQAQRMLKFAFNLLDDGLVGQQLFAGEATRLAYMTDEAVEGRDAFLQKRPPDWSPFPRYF
Mtb MbtI inh – inhibitors of Mycobacterium tuberculosis siderophore enzyme MbtI; P9WFX0; purified MbtI enzyme, fluorescence intensity read-out; inhibition, %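 (about 17 µg/mL by stock and volumes)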; 0.89% of 100,000 active; AID 493033;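 active = above 50% in both replicates, above 80% if mildly self-fluorescent; inactive = the rest, strongly fluorescent compounds included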;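 also: 0% = mean of negative and 100% = mean of positive controls; one replicate is shown; some compounds called inactive have numbers as strong as hits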
PV pol inh intensity – second read-out of PV pol inh, no call of its own (marks repeat the call); % elongation; measured here: total intensity read-out; formula for this scale not given here;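 total fluorescence in place of polarization; lower means less elongation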
Numbers without * were called inactive; x = not tested or not shown; & = joins results of further samples. Not a hit list; overall some 1.9% were active at least once.

SMILES | PV pol inh | PV pol inh intensity | Mtb MenB inh | Mtb MbtI inh
CC1(c2ccccc2)NC(=O)N(NC(=O)CSc2nnc(-c3ccccc3)o2)C1=O (stereo not given) | 104 | 110 | -19 | -9
O=C1OC(C(=O)Nc2ccccc2)Cc2ccccc21 (stereo not given) | 99 | 103 | 6 | 2
NC(=O)N1CCC(C(=O)O)CC1 | 103 | 98 | -2 | 9
Cc1nc2ccccc2nc1SCC(=O)Nc1ccccc1 | 103 | 109 | x | -7
O=C(O)c1cn2ccccc2n1 | 104 | 93 | -1 | 102
S=C(Nc1ccc2[nH]ccc2c1)NC1CCCCC1 | 103 | 113 | -28 | 0
COc1ccc(CCN(C)CCCC(C#N)(c2cc(OC)c(OC)c(OC)c2)C(C)C)cc1OC (stereo not given) | 101&101 | 102&102 | -4 | -7
CCc1ccc(-n2[nH]c(=O)c(/C=c3/c(C)c(C#N)c4nc5ccccc5n4c3=O)c2O)cc1 | 102 | 103 | -26 | 8
CSc1ccc(CCNC(=O)Nc2cn(C)c(=O)c3ccccc23)cc1 | 45* | 42* | -28 | -6
O=C(c1ccc(O)cc1)N1Cc2ccccc2NC1=S | 100 | 118 | -43 | x
CCOC(=O)c1c(C)oc2c1c1c(c3ccccc32)OCN(C(C)C)C1 | 104 | 102 | 0 | 10
COc1ccc(Cc2nn3c(C(F)(F)F)nnc3s2)cc1OC | 105 | 102 | -5 | -14
CC1CC(C)(C)N(C(=O)c2ccccc2F)c2ccccc21 (stereo not given) | 104 | 107 | -3 | -2
CC(=O)Nc1ccc(/C=C2/C(=O)N(CCC#N)C=C2C)cc1 | 107 | 109 | -32 | 16
O=C(c1ccccc1)c1ccccn1 | 100 | 106 | -17 | 8
Cc1cn2c(=O)c(C(=O)NC3=NCCS3)cnc2s1 | 105 | 103 | -10 | -24
O=C(O)CSCC(=O)Nc1ccccc1-c1ccccc1 | 101 | 102 | 14 | 2
CCCCN1C(=O)/C(=C(\C#N)C(N)=O)c2ccccc21 | 102 | 100 | x | 38
CC(C)C(=O)Nc1ccc(CN2CCOCC2)cc1 | 109 | 119 | -13 | x
COc1cccc(-c2noc(C(C)Oc3ccccc3)n2)c1 (stereo not given) | 105 | 103 | -15 | -4
CC1CCCCC1n1c(SCC(=O)c2ccc(Br)s2)nnc1-c1cccnc1 (stereo not given) | 111 | 110 | -4 | 1
O=C(O)C1CCC(Cn2c(=S)[nH]c3ccccc3c2=O)CC1 (stereo not given) | 102 | 103 | 3 | 21
O=C(c1ccc(Cl)cc1)n1c(=O)oc2cc(Cl)ccc21 | 103 | 100 | -17 | -4
CCCCNC(=O)C1CCC(=O)N1Cc1ccccc1Cl (stereo not given) | 101 | 103 | -5 | -17
c1ccc(C2CC(c3ccccc3)n3nnnc3N2)cc1 (stereo not given) | 103 | 106 | x | -7

Part of the list above in order of molecular weight, largest number first:
SMILES | PV pol inh | PV pol inh intensity | Mtb MenB inh | Mtb MbtI inh
CC1CCCCC1n1c(SCC(=O)c2ccc(Br)s2)nnc1-c1cccnc1 (stereo not given) | 111 | 110 | -4 | 1
CCc1ccc(-n2[nH]c(=O)c(/C=c3/c(C)c(C#N)c4nc5ccccc5n4c3=O)c2O)cc1 | 102 | 103 | -26 | 8
CC1(c2ccccc2)NC(=O)N(NC(=O)CSc2nnc(-c3ccccc3)o2)C1=O (stereo not given) | 104 | 110 | -19 | -9
CSc1ccc(CCNC(=O)Nc2cn(C)c(=O)c3ccccc23)cc1 | 45* | 42* | -28 | -6
CCOC(=O)c1c(C)oc2c1c1c(c3ccccc32)OCN(C(C)C)C1 | 104 | 102 | 0 | 10
COc1ccc(Cc2nn3c(C(F)(F)F)nnc3s2)cc1OC | 105 | 102 | -5 | -14
O=C(O)C1CCC(Cn2c(=S)[nH]c3ccccc3c2=O)CC1 (stereo not given) | 102 | 103 | 3 | 21
Cc1nc2ccccc2nc1SCC(=O)Nc1ccccc1 | 103 | 109 | x | -7
O=C(c1ccc(Cl)cc1)n1c(=O)oc2cc(Cl)ccc21 | 103 | 100 | -17 | -4
O=C(O)CSCC(=O)Nc1ccccc1-c1ccccc1 | 101 | 102 | 14 | 2
COc1cccc(-c2noc(C(C)Oc3ccccc3)n2)c1 (stereo not given) | 105 | 103 | -15 | -4
Cc1cn2c(=O)c(C(=O)NC3=NCCS3)cnc2s1 | 105 | 103 | -10 | -24
O=C(c1ccc(O)cc1)N1Cc2ccccc2NC1=S | 100 | 118 | -43 | x
CCCCN1C(=O)/C(=C(\C#N)C(N)=O)c2ccccc21 | 102 | 100 | x | 38
O=C1OC(C(=O)Nc2ccccc2)Cc2ccccc21 (stereo not given) | 99 | 103 | 6 | 2
CC(C)C(=O)Nc1ccc(CN2CCOCC2)cc1 | 109 | 119 | -13 | x
O=C(c1ccccc1)c1ccccn1 | 100 | 106 | -17 | 8
NC(=O)N1CCC(C(=O)O)CC1 | 103 | 98 | -2 | 9
O=C(O)c1cn2ccccc2n1 | 104 | 93 | -1 | 102

(next part)
SMILES | PV pol inh | PV pol inh intensity | Mtb MenB inh | Mtb MbtI inh
CCCCC(=O)Nc1nn2c(-c3cccc(C)c3)nnc2s1 | 100 | 97 | -12 | -10
O=C(CCN1C(=O)c2ccccc2C1=O)Nc1ccc(S(=O)(=O)Nc2ncccn2)cc1 | 101 | 101 | 4 | 1
CN1C(=O)c2ccc(C(=O)O)cc2CC1c1ccccc1 (stereo not given) | 100 | 99 | -7 | -6
COc1ccccc1Nc1ccc(N=Cc2ccc(F)c(F)c2)cc1 | 105 | 105 | x | 3
Cc1cccc(CN2C(=O)/C(=C\c3ccc(C(=O)N4CCCC4)cc3)Oc3ccccc32)c1 | 102 | 100 | -1 | 2
CC(C)NC(=O)COn1nnc2ccc(Cl)cc21 | 107 | 103 | -9 | -9
O=C(CNc1nnnn1-c1ccccc1)Nc1ccc(F)c(F)c1F | 105 | 111 | -32 | -14
NC(=O)c1ccc(-n2nnnc2Oc2ccccc2C(=O)N2CCOCC2)cc1 | 99 | 99 | -15 | -1
O=C(NC1=NCCS1)C1COc2ccccc2O1 (stereo not given) | 104 | 99 | 4 | 6
CC1CC(C)CN(C(=O)c2ccc(CSc3nc4ccncc4[nH]3)cc2)C1 (stereo not given) | 103 | 105 | 6 | -3
O=C(CCNC(=O)c1ccccc1Cl)Nc1nccs1 | 106 | 113 | 0 | -31
FC(F)(F)Oc1ccc(-n2[nH]nnc2=S)cc1 | 99 | 100 | 14 | 40
CCC12CCCN3CCc4c(n(c5ccccc45)C(=O)C1)C32 (stereo not given) | 99 | 98 | -22 | -9
O=c1oc2ccccc2c(O)c1C=NCc1ccccn1 | 100 | 105 | -57 | 7
CCS(=O)(=O)Nc1cc(C(C)(C)C)ccc1OC | 102 | 104 | -38 | -20
O=C1CCC(=O)N1N1C(=O)C2C3c4ccccc4C(c4ccccc43)C2C1=O (stereo not given) | 101 | 101 | -19 | -10
CCC(=O)/C=C1/Sc2ccc(OC)cc2N1CC | 101 | 100 | -24 | 8
O=C(Nc1ccc(C(F)(F)F)cc1)N1C2CCC1CC(O)(c1cccnc1)C2 (stereo not given) | 104 | 111 | 16 | 1
Cc1nc2scc(C)n2c(=O)c1S(=O)(=O)NCCN1CCOCC1 | 101 | 105 | 14 | 117
COc1cccc(-n2c(=O)c3sccc3n(Cc3ccc(C(C)(C)C)cc3)c2=O)c1 | 99 | 101 | -21 | -4
O=C(OCC(=O)c1ccc(Cl)cc1Cl)c1ccccn1 | 104 | 108 | x | -11
N#CCOC(=O)c1ccccc1NC(=O)c1ccccc1 | 108 | 110 | -15 | 14
CCCCC(=O)Nc1ccc(S(=O)(=O)N2CCCCCC2)cc1 | 99 | 102 | -8 | -6
Cc1cc(NC(=O)CCCN2C(=O)/C(=C\c3ccco3)SC2=S)no1 | 105 | 105 | -37 | 9
CN(C(=O)COC(=O)c1cnc(Cl)c(Cl)c1)C1CCCCC1 | 100 | 103 | x | 1
SMILES | PV pol inh | PV pol inh intensity | Mtb MenB inh | Mtb MbtI inh
Cc1ccccc1Nc1nc(N)nc(Cn2cc(Br)ccc2=O)n1 | 100 | 109 | -24 | 24
Cc1ccccc1C(=O)OCC(=O)Nc1cccc(C#N)c1 | 100 | 101 | x | -13
Cc1ccc(-n2c(=O)c3c(cnn3C)n(Cc3cccc(C)c3)c2=O)cc1 | 102 | 104 | 1 | -1
CCN(CC)S(=O)(=O)c1ccc2oc(C(=O)NC3CCCCC3C)c(C)c2c1 (stereo not given) | 100 | 104 | -14 | -4
O=C(/C=C/c1ccco1)OCc1nc2sc3c(c2c(=O)[nH]1)CCCC3 | 114 | 106 | -24 | 5
CCOC(=O)N1CCC(NC(=O)CSCc2nc(-c3ccccc3Cl)oc2C)CC1 | 100 | 102 | -19 | 0
Cc1[nH]nc(-c2ccc(S(=O)(=O)N3CCc4ccccc43)s2)c1C | 110 | 141 | -23 | -1
Cc1ccc(NC(NC(=O)c2cccs2)C(=O)c2ccccc2)cc1 (stereo not given) | 100 | 93 | -19 | 0
Cc1nc2nc(NC(=O)c3ccccc3)[nH]n2c(=O)c1Cc1ccccc1 | 100 | 103 | -10 | -17
CC1CCc2c(sc(NC(=O)c3cccs3)c2C(=O)N2CCCCC2)C1 (stereo not given) | 100 | 101 | -2 | -9
CN(C)c1c(F)cc(C(=O)NC(=O)Nc2nnc(C(F)(F)F)s2)cc1F | 102 | 100 | -8 | -16
COc1ccc(C(=O)CSC2=NCCCCCC2)cc1 | 96 | 103 | 6 | 27
CCC(C)C12CN(C(C)=O)CC(C)(CN(C(C)=O)C1)C2=O (stereo not given) | 101 | 100 | 31 | -2
CNC(=S)NC1CCN(Cc2ccccc2)CC1 | 104 | 99 | -18 | 1
CC1CN(CC(O)COC(C)c2ccc(Cl)cc2)CC(C)O1 (stereo not given) | 102 | 101 | -11 | 0
COC(=O)CC1C(=O)NCCN1C(=S)Nc1ccccc1 (stereo not given) | 101 | 102 | -15 | -4
OCCNc1nnc2c(n1)[nH]c1ccccc12 | 107 | 102 | -32 | 10
CCc1ccc(NC(=O)Nc2nnc(N(C)Cc3ccccc3)s2)cc1 | 107 | 105 | -10 | 2
COc1ccc(NC(=O)CCCn2c(=O)c3sccc3n(CC(=O)C(C)(C)C)c2=O)cc1 | 101 | 102 | -4 | 2
C=CCN(C(=O)C(C)Sc1nc2ncccc2o1)c1ccccc1 (stereo not given) | 99 | 103 | -60 | -7
C(=Nc1ccc(Cc2ccc(N=Cc3ccccn3)cc2)cc1)c1ccccn1 | 104 | 108 | -18 | -7
CCN(CC)CCn1c(=O)[nH]c2cc(C(=O)NC3CCCC3)ccc21 | 104 | 100 | -23 | -3
O=C(CCC(=O)N1CCCCc2ccccc21)N1CCC2(CC1)OCCO2 | 106 | 101 | -10 | -10
CC1=C(CC(=O)O)c2cc(F)ccc2/C1=C/c1ccc(S(C)=O)cc1 (stereo not given) | 101 | 100 | 0 | -1
O=C(Cn1cnc2c(oc3ccccc32)c1=O)Nc1ccccc1F | 100 | 99 | 0 | 9
SMILES | PV pol inh | PV pol inh intensity | Mtb MenB inh | Mtb MbtI inh
COc1ccc(-c2nc(-c3cccs3)no2)cc1 | 108 | 113 | -12 | x
Cn1nnnc1SCC(=O)Nc1ccc(C(=O)N2CCN(Cc3cccs3)CC2)cc1 | 108 | 106 | -5 | -7
CCN(CC(=O)Nc1ccc(Br)cc1)CC(=O)Nc1ccc(NC(C)=O)cc1 | 104 | 109 | -17 | -4
Nc1ccc(-n2cnnn2)cc1 | 103 | 104 | -2 | -1
C=CCn1c(SCC(=O)c2ccc(NC(=O)CC)cc2)nnc1C1COc2ccccc2O1 (stereo not given) | 112 | 104 | -32 | -2
N#CCSc1nc2ccc(N)cc2s1 | 101 | 104 | -1 | 12
CCN(CC)CCCn1c(-c2ccccc2)cn2c3ccccc3nc12 | 104 | 107 | -12 | 1
CCCCc1nc2c(nnn2Cc2ccccc2)c(=O)[nH]1 | 102 | 103 | -41 | -3
CC1c2cccn2CCN1S(=O)(=O)/C=C/c1ccc(Cl)cc1 (stereo not given) | 106 | 100 | -14 | -8
O=C(Nc1cccc(Br)c1)C1CC(=O)N(C2CCCC2)C1 (stereo not given) | 104 | 102 | -9 | -5
COC(=O)c1ccc(-c2ccco2)n1CC(=O)NC(C)C | 102 | 99 | 4 | 1
O=C(CSc1nc2ccccc2s1)c1ccc(O)cc1O | 104 | 100 | -14 | 10
COc1ccc2nc(C3C(=O)c4cccnc4C3=O)ccc2c1 (stereo not given) | 102 | 100 | 16 | 2
O=C(c1cccc(S(=O)(=O)N2CCOCC2)c1)N1CCCCC1 | 103 | 103 | -13 | 1
Cc1ccc(-n2c(C)nnc2SCC(=O)N(c2ccccc2)C(C)C)cc1 | 103 | 98 | x | 0
COc1ccc(/C=c2\oc3cccc4c(OC)ccc(c2=O)c34)cc1 | 106 | 171 | -3 | -3

Bioassay records as filed in PubChem.
